High-throughput results: PubChem, several laboratories
A1 inh: inhibitors of the anti-apoptotic protein A1, read as caspase activation; AID 2462; caspase activation, % (concentration not given with the values); actives 0.066% (n = 330,000); MEF A1-2A-BIM cells, Caspase-Glo 3/7 luminescence, 3 h; percent of clofoctol response, vehicle zero;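 active = over half of replicate activation scores above 10%, or exactly half above 10 with the replicate mean above 10; inconclusive = replicate mean below 10 yet half the replicates above 10; inactive = over half of replicates below 10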;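 also: wells of about 30 µL received 50 nL stock; many hits fall short of the cut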
UCH37 DUB inh: inhibitors of human deubiquitinating enzyme UCH37 | actives 0.33% (n = 330,000) | Q9Y5K5 | purified proteasome/UCH37, Ub-AMC cleavage fluorescence | inhibition, % (no concentration beside the values);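 active = mean of two replicates above 20%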;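 also: 0% = compound-free wells with enzyme and 100% = wells lacking proteasome; stock transfer was 100 nL into about 20 µL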
Target sequence (Q9Y5K5 whole entry, looked up): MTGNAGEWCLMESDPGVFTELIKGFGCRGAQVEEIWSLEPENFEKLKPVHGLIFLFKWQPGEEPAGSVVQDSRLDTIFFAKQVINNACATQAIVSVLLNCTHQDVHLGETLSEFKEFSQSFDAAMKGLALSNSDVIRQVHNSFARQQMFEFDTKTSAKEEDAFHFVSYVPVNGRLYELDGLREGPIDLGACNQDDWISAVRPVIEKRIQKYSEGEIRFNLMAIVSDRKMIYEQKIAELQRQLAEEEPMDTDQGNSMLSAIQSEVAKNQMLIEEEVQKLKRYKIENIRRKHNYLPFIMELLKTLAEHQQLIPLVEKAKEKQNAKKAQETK
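system = Proteasome-associated human UCH37 deubiquitinase | amount = 0.15 nM proteasome as dispensed | medium = pH 7.4 Tris-HCl (50 mM) with ovalbumin, ATP-MgCl2, DTT | incubation = 30 min preincubation with enzyme, 25 min cleavage at room temperature | detection = AMC fluorescence 355/460 nm | read-out basis = percent inhibition | controls = no-proteasome and no-compound wells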
LANA-H2B inh: blocks KSHV LANA binding to histone H2A/H2B | Q9QR71 | cell-free LANA-H2A/H2B peptide, fluorescence polarization | inhibition, % (concentration not given with the values) | actives 0.6% (n = 320,000) | AID 2629; in the data active = inhibition mostly above about 10%, no sharp cut-off; inactive = mostly below about 6.7%;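 also: stock transfer was 7.5 nL into about 10 µL; 0% = median of vehicle wells and 100% = median of positive control wells; one replicate is shown; the record names a cut of 25% in any replicate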
HNF4A DNA FP: change in binding of human HNF4 alpha to DNA. P41235. HNF4a-FITC DNA binding, fluorescence polarization, 1 h. activity change, % at 10 µM. actives 0.3% (n = 360,000). AID 1224865; in the data active = activity change above about 30%, passing the limit was not always enough;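 also: controls were the assay level and a saturating level of protein; the project sought stronger binding though the title names inhibitors; some compounds called inactive have numbers as strong as hits; positive values seem to mean higher polarization but the record does not say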
B2AR ag: agonists of human beta-2 adrenergic receptor inducing internalization | P07550 | Am2.2-beta2AR cells, FAP receptor internalization, flow cytometry; reference of the scale not given here | response, % (no concentration beside the values) | actives 0.43% (n = 340,000) | AID 504454;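 active = response above a set limit, near 3 SD of response in nonfluorescent compounds, cut at about 42% in these data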;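 also: stock transfer was 100 nL into about 11 µL; a reference agonist was the positive control; negative values mostly stem from fluorescent compounds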
Target sequence (P07550 whole entry, looked up): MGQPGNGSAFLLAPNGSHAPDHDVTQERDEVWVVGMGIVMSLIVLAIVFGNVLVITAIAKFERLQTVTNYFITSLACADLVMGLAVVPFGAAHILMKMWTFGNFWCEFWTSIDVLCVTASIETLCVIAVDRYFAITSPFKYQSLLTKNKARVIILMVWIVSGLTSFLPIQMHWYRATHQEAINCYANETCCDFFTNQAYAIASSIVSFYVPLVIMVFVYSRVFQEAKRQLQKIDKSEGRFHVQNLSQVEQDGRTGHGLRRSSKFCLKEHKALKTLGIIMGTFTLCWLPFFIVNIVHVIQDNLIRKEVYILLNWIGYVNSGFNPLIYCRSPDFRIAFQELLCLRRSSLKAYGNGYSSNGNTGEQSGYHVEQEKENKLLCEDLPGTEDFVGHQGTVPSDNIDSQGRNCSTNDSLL
E coli growth: inhibitors of Escherichia coli growth. OD600, 23 h; hits give low values. OD600 absorbance (no concentration beside the values). actives 0.21% (n = 330,000);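 active = OD600 absorbance below the run mean of sample wells minus 3.6 SD, in any replicate, cut at about 0.56 in these data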;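 also: stock transfer was 300 nL into about 60 µL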
Vif A3G: HIV-1 Vif–A3G interaction blockers – biochemical, TR-FRET, GST-Vif 1-94, biotin-A3G peptide, dose response retest, primary screen (AID 1117319); TR-FRET GST-Vif / biotin-A3G peptide binding; higher % means a stronger effect; test concentration not given here; strong numbers were not always called active; one-dose inhibition, %; IC50 in µM for titrated hits; actives 0.57% (n = 260,000);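 active = above the screen mean plus three standard deviations and confirmed in dose response; inconclusive = results disagree or hit not tested in dose response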;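 also: Vif residues 1-94 fused to GST binding biotinylated APOBEC3G peptide 110-148; 0% = full assay without inhibitor and 100% = GST in place of GST-Vif; retest series ran down from 100 µM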
An asterisk follows results filed as active; ? = inconclusive; . = not tested or not shown; & = joins results of further samples.

SMILES	A1 inh	UCH37 DUB inh	LANA-H2B inh	HNF4A DNA FP	B2AR ag	E coli growth	Vif A3G
CC1CCCC(C)N1C(=O)c1ccc(S(=O)(=O)NCc2ccco2)cc1 (stereo unspecified)	0.2	5.3	-14	-1.3	-2	0.72	.
Cc1cc(C(=O)c2cnc(/N=C/N(C)C)s2)c(F)cc1Cl	-0.1	.	.	11	-13	.	4%
COc1cc(NC(=O)c2ccccc2)c(OC)cc1Cl	1.0	-3.3	-7.5	0.6	1	0.73	0%
Cc1ccc(-c2nc(NC(=O)CSc3ncn[nH]3)ns2)cc1	-0.4	-1.1	5.3	-0.4	-7	0.69	13%
N#Cc1c(C(F)(F)F)cc(-c2cccs2)nc1SCc1ccc(Cl)nc1	-0.1	-189	0.7	-5.8	-8	0.74	-10%
CCCn1nc(C(=O)Nc2ccc(N3CCOCC3)cc2)c2ccccc2c1=O	0.3	-2.4	-0.1	3.2	2	0.68	-7%
CC(OC(=O)c1ccc(NC(=O)CC#N)cc1)C(=O)Nc1nc(-c2ccccc2)cs1 (stereo unspecified)	?	0.1	.	5.4	11	0.69	6%
O=C(Nc1ccccc1OC(=O)c1ccc(Cl)cc1)c1ccc(Cl)cc1	-0.1	2.7	4.2	-0.3	0	0.69	.
Cc1ccc(C(=O)CN(C(=O)c2ccc(Cl)c(Cl)c2)N2C(=O)C3C4C=CC(C4)C3C2=O)cc1 (stereo unspecified)	0.7	0.0	-4.1	-4.9	8	0.7	-3%
CCOc1ccc2nc(N3C(=O)/C(=C/c4ccc(Cl)cc4)NC3=S)sc2c1	.	.	.	-44	14	.	23%
COc1cccc(/C=C/C(=O)OCC(=O)Nc2ccc(N3CCOCC3)cc2)c1OC	0.1	-1.0	-3.6	3.0	3	0.66	8%
COc1ccccc1-c1sc2cc3c(cc2c1-c1ccc2c(c1)OCO2)OCO3	0.2	.	-7.0	1.0	7	.	.

Sorted by length of the SMILES (ascending): part of the list above.
SMILES	A1 inh	UCH37 DUB inh	LANA-H2B inh	HNF4A DNA FP	B2AR ag	E coli growth	Vif A3G
Cc1ccc(-c2nc(NC(=O)CSc3ncn[nH]3)ns2)cc1	-0.4	-1.1	5.3	-0.4	-7	0.69	13%
CCCn1nc(C(=O)Nc2ccc(N3CCOCC3)cc2)c2ccccc2c1=O	0.3	-2.4	-0.1	3.2	2	0.68	-7%
Cc1ccc(C(=O)CN(C(=O)c2ccc(Cl)c(Cl)c2)N2C(=O)C3C4C=CC(C4)C3C2=O)cc1 (stereo unspecified)	0.7	0.0	-4.1	-4.9	8	0.7	-3%

Remaining list, next part
SMILES	A1 inh	UCH37 DUB inh	LANA-H2B inh	HNF4A DNA FP	B2AR ag	E coli growth	Vif A3G
CCOCCCN(C(=O)CCC(=O)Nc1cc(C)on1)C(C(=O)NC(C)(C)C)c1ccccc1Cl (stereo unspecified)	0.4	5.8	-5.3	0.7	3	0.69	.
COC(=O)C1=CN(Cc2ccc(C)cc2)C=C(C(=O)OC)C1c1cc(OC)c(OC)c(OC)c1	-1.4	-239	1.4	-2.9	4	0.65	.
CCn1c(-c2csc(C(C)C)c2)n[nH]c1=S	-1.2	3.9	8.0	-2.2	0	0.67	6%
Cc1cccc(C(C)C)c1NC(=O)COC(=O)COc1ccc2c(C)cc(=O)oc2c1	1.0	-25	-1.2	-1.6	-2	0.66	29%
CC[C@@]12C(=O)N(c3cccc(C)c3)C(=O)N1[C@H](c1ccc(Br)cc1)[C@@H]1C(=O)N(C(C)(C)C)C(=O)[C@@H]12	0.0	-0.9	-4.5	-1.1	-1	.	.
COc1ccc(C(CC(=O)N2CCN(c3ccccc3)CC2)c2c(O)cc(OC)cc2OC)cc1 (stereo unspecified)	0.5	0.9	3.0	0.9	-3	0.69	.
CC1(C)Cc2c(cnn2-c2cccc(F)c2)C(NC(=O)CCc2cnccn2)C1 (stereo unspecified)	1.1	4.5	3.8	-0.4	-2	0.73	1%
Cc1noc(C)c1COc1ccccc1C(=O)NCc1ccccc1Cl	0.8	0.0	-0.8	4.4	2	0.7	0%
NC(=O)CSc1nnc(-c2ccccc2)c(-c2ccccc2)n1	-1.6	4.6	2.1	-1.6	0	0.7	-9%
CCCC(=O)Nc1ccc(C(=O)COC(=O)C2CC2C)cc1 (stereo unspecified)	-1.3	.	-1.1	-2.6	0	.	.
Cn1c(=O)[nH]c(=O)c2c1nc(N1CCCC1)n2CCCSc1nc2ccccc2o1	-0.3	1.8	2.4	4.7	-8	0.71	-6%
COc1ccc(-c2nn(Cc3ccccc3)cc2C(=O)N2CCN(c3ncccn3)CC2)cc1OC	-0.5	0.6	7.2	-2.3	-5	0.66	6%
COCCSc1nnc(-c2cnccn2)o1	0.1	-3.1	2.4	-1.3	6	0.73	15%
CCCCn1c(N)c(N(CC(C)C)C(=O)c2cccc(S(=O)(=O)N3CCCCC3)c2)c(=O)[nH]c1=O	0.2	0.4	1.3	-0.2	-5	0.67	10%
NC(=O)CN1C(=O)C(=O)N(Cc2ccccc2)C1=O	-0.3	3.0	-0.7	0.2	-6	0.65	-2%
Cc1ccc(SCC(=O)OCC(=O)NCCC2=CCCCC2)cc1	0.0	3.4	0.8	1.6	-3	0.69	-7%
Nc1cccc(-c2nc3ccc(C(=O)c4ccccc4)cc3[nH]2)c1	-6.8	1.3	1.0	0.7	7	0.65	-8%
CCOc1ccc(CCNC(=O)CCn2nc(C)c3c(C)n(-c4ccccc4)nc3c2=O)cc1	0.1	-2.0	-0.7	5.5	-12	0.66	.
COC(=O)c1ccccc1NC(=O)C1CC(=O)N(c2ccccc2)C1 (stereo unspecified)	0.1	1.5	-4.3	1.9	2	0.72	?
O=c1cc(-c2cccc(F)c2)oc2ccccc12	.	2.2	.	-4.7	-5	0.65	-9%
Cn1c(=O)c2ccccc2n(Cc2ccccc2F)c1=O	0.1	0.4	-2.7	1.6	1	0.65	?
CC1(C)NC(=O)N(CCCCOc2ccccc2[N+](=O)[O-])C1=O	0.4	6.7	-7.2	.	.	0.67	2%
CCOC(=O)c1[nH]c2ccc(OC)cc2c1NC(=O)CCN1CCC(C)CC1	-0.2	-59	1.0	.	.	0.78	-7%
CCCCN(C)C(=O)C1CCN(Cc2cccc(OCc3ccccc3)c2)CC1	-1.0	2.8	-3.6	2.9	-3	0.64	.
O=C(N/N=C\c1cc2c(cc1Cl)OCO2)c1ccc(Br)s1	-0.2	.	-4.4	2.8	-5	.	2%
Cc1cc(C(=O)CSc2nnnn2-c2ccc(O)cc2)c(C)n1C	-0.1	3.3	-4.7	-0.1	-3	0.67	-3%
C=C(C)CN(CC)C(=O)CC1C(=O)NCCN1CC(C)(C)C (stereo unspecified)	1.0	0.1	-1.9	2.2	-21	0.7	25%
N/C(=N\OC(=O)C1CCCCC1)c1ccccn1	-4.1	-0.2	-0.7	0.0	-11	0.71	4%
Cc1nnc(Oc2ccc([N+](=O)[O-])cc2)c2ccccc12	0.7	1.0	1.7	-3.3	-3	0.7	-5%
CC(=O)c1ccccc1NC(=O)COC(=O)/C=C/c1ccc(C)o1	1.4	1.3	-0.5	6.7	-3	0.71	8%
COc1ccc(S(=O)(=O)N(C)CC(=O)NCCCN2CCOCC2)cc1Cl	0.0	-2.4	-2.4	-3.4	5	0.69	.
Cc1ccc(C(=O)NC(=S)N2CCCCCC2)cc1	-0.4	-0.3	1.7	-2.6	-18	0.67	.
CCOC(=O)c1cc2c(nc1NC(=S)Nc1ccccc1)CC(C)(C)OC2	-0.2	6.6	-3.6	6.8	-4	0.71	.
CC1=NC(Nc2nc(C)c3ccccc3n2)=NC(C)(C)C1	-0.5	-0.5	0.9	14	0	0.66	-5%
CCN(CC)S(=O)(=O)c1ccc(NCC2COc3ccccc3O2)c([N+](=O)[O-])c1 (stereo unspecified)	-0.8	7.7	-2.8	2.1	.	0.7	-15%
COc1cc2nc(NCC3CCCO3)n3nc(-c4cccnc4)nc3c2cc1OC (stereo unspecified)	-0.1	0.6	-3.2	-4.0	13	0.72	-4%&-3%
COc1ccccc1NC(=O)CN(C)S(=O)(=O)c1ccc(F)cc1	0.3	1.1	1.5	-0.7	2	0.77	2%
O=C(Nc1cccc2ccccc12)N(CCO)C1CCS(=O)(=O)C1 (stereo unspecified)	0.0	2.0	0.8	-1.9	-1	0.6	.
CCOc1ccc(CCNC(=O)C(C)n2nc(C)n3c(cc4occc43)c2=O)cc1OCC (stereo unspecified)	-0.4	2.4	-10	-1.6	-5	0.67	15%
CCCNC(=S)NC1CC2CCCC(C1)N2Cc1ccc(F)cc1 (stereo unspecified)	0.6	-1.7	1.8	-2.5	-6	0.67	.
COc1ccc(/C=C(\C#N)C(=O)OCC(=O)NC2CC2)cc1	0.2	-8.4	-3.3	-1.6	2	0.72	.
CN1CCN(Cc2nc3cc(NC(=O)COc4ccc([N+](=O)[O-])cc4)ccc3n2C)CC1	.	0.7	.	-0.2	5	0.69	1%
N#Cc1c(N)nc2c(c1N)CC(C(F)(F)F)O2 (stereo unspecified)	0.3	1.8	-8.6	-0.5	-5	0.67	-2%
O=C(CSc1nnnn1C1CC1)N1CCN(c2ccc(O)cc2)CC1	0.4	5.5	-2.9	-0.9	-4	0.7	7%
COc1ccc(C(=O)Nc2ccc3[nH]ccc3c2)cc1OC	-6.1	3.5	-2.2	-1.8	0	0.62	.
CC(=O)C(Sc1nc(NC(C)(C)C)nc(N(C)C)n1)C(C)=O	-1.1	1.7	2.2	-1.0	-6	0.76	-2%
CCOc1ccc(NC(=O)CCS(=O)(=O)c2cccc3nsnc23)cc1	0.6	-0.2	-2.7	3.3	6	0.67	-1%
CN1c2ccccc2C(O)=C(C(=S)Nc2ccc(Cl)cc2)S1(=O)=O	-0.1	18	4.3	3.7	5	0.66	-9%
CC1(C)CC2CC(C)(CN2/C=N/c2sc3c(c2C#N)CC(C)(C)NC3(C)C)C1 (stereo unspecified)	-0.8	.	-2.9	2.6	28	.	-15%
CCCCNC(=O)c1cc2c(=O)n3cccc(C)c3nc2n(CCN2CCOCC2)c1=N	0.1	.	5.6	4.0	-8	.	8%
CCNC(=S)N(Cc1ccc2c(c1)OCO2)C1CC(=O)N(c2ccc(F)cc2)C1=O (stereo unspecified)	0.2	5.2	1.2	0.7	4	0.77	15%
Nc1ccnc(C(F)(F)F)c1C(=O)c1ccccc1	0.4	0.0	-2.7	1.8	-8	0.7	3%
CC(=O)c1ccc(NC(=O)COC(=O)c2c[nH]c3ccccc23)cc1	0.0	-0.6	-1.9	3.6	1	0.7	.
Oc1ccccc1C1=Nc2ncnn2C(c2ccccc2)C1 (stereo unspecified)	0.3	6.2	5.2	-0.6	-6	0.72	4%
COc1ccc(C2CC(c3cccc(Cl)c3)n3nc(N)nc3N2)cc1 (stereo unspecified)	-0.1	-0.4	-0.7	0.8	-7	0.77	11%
Cc1cc(C)cc(OCc2nnc(SCC(=O)OC3CCCCC3)o2)c1	-0.5	5.7	-2.5	-3.9	6	0.69	-1%
CC1CN(S(=O)(=O)c2ccc(NC(=O)CCN3C(=O)c4ccccc4C3=O)cc2)CC(C)O1 (stereo unspecified)	-0.7	4.0	-5.5	4.5	8	0.67	-2%
CC(C)NC(=O)c1ccccc1NC(=O)CCc1ccccc1	-0.1	1.5	-0.9	3.1	2	0.65	-7%
CC1(C)CC(=O)C(C=NCC2CCN(C(=S)Nc3cccc(Cl)c3)CC2)=C(O)C1	0.5	-4.0	1.9	3.9	-2	0.7	-4%
COCCN(C(=O)COC(=O)CCc1ccccc1OC)c1c(N)n(Cc2ccccc2)c(=O)[nH]c1=O	0.4	2.2	-1.6	1.3	3	0.7	-1%
O=S(=O)(c1cccc(-c2csc(-c3ccccc3)n2)c1)N1CCOCC1	-0.6	1.6	-5.4	9.0	-3	0.68	2%
